High-throughput results (PubChem)
StopGo reporter = lowers the luciferase signal of an FMDV 2A StopGo reporter; human cells with a luciferase reporter of 2A StopGo recoding; control for the full effect not named in the record; 410,000 tested, 1.2% active; Potency, µM (top dose mostly 57.9 µM), for inactives: top-dose signal change, negative = less light; active = well fitted falling curve with a large enough effect; inconclusive = small, poorly fitted or top-dose-only effect; inactive = no such curve, though single readings can be large or run the other way; tested in HEK293T cells; note: % is set by controls: 0 for no effect and ±100 for the full control effect; nearly all actives have a fitted effect of over 45% in size; luciferase light after 4 h
RE007 growth inh = less growth of the S. pombe RE007 Vpr strain | S. pombe RE007 Vpr strain, BacTiter-Glo ATP luminescence, 24 h; control for the full effect not named in the record | Potency, µM (highest dose often 92.2 µM), for the others: top-dose activity change, negative = less growth | 360,000 tested, 0.21% active | AID 651644; active = well fitted falling curve with a large enough effect; inconclusive = small, poorly fitted or top-dose-only effect; inactive = no such curve, though single readings can be large or run the other way;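 note: % is set by controls: 0 for no effect and ±100 for the full control effect; nearly all actives have a fitted effect of over 50% in size; the assay follows cell death caused by Vpr and the record does not say whether a fall means rescue or toxicity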
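Fission yeast strain RE007, carrying one chromosomally integrated HIV-1 vpr copy, was seeded at OD 0.01 in PMG+AL medium with 23 nL pinned compound. After 24 h at 30 °C and 99% humidity, viability was read by BacTiter-Glo luminescence.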
Cruzain noTriton = inhibitors of Trypanosoma cruzi cruzain without detergent; P25779; purified cruzain, Z-FR-AMC fluorescence, no detergent; Potency, µM, inactives show max response, negative = inhibition, usual class: inhibitors; 200,000 tested, 2.3% active;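 note: plate controls were enzyme without inhibitor for no effect and buffer without enzyme for full effect; nearly all actives have a fitted effect of over 40% in size; top concentration of the series not given in the record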
Target sequence (P25779 123-467 limits assumed): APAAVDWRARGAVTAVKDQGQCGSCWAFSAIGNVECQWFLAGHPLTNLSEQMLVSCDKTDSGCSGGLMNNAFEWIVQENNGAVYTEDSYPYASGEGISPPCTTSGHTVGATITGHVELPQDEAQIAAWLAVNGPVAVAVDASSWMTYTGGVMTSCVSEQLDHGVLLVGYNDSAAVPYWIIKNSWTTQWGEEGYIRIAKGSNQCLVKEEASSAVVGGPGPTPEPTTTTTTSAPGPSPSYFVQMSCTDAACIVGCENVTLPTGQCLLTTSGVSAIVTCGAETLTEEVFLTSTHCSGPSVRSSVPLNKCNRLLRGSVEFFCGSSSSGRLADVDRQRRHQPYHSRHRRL
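Purified cruzain at 1.5 nM, pre-incubated 15 min with compound at room temperature in 100 mM sodium acetate pH 5.5, 5 mM DTT, 0.00005% Triton X-100. Reaction started with 2 uM Z-FR-AMC; AMC fluorescence increase over 60 s gives rate.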
MARV entry inh = inhibitors of Marburg virus binding or cell entry | Marburg virus pseudotyped entry inhibition, cell reporter; control for the full effect not named in the record; about a third of the inactives were read at about 46 µM | Potency, µM (highest dose often 37.8 µM), without a hit: at the highest dose activity change, negative = inhibition, actives largely listed as inhibitors | 300,000 tested, 1.8% active | AID 540276; active = well fitted inhibition curve with a large enough effect; inconclusive = small, poorly fitted or top-dose-only effect, or effect the other way; inactive = flat fitted curve, though single readings scatter; tested in HEK293 cells; about a fifth of its hits are not listed in these tables; note: % is set by controls: 0 for no effect and ±100 for the full control effect; luciferase read-out
LASV entry inh = inhibitors of Lassa virus binding or cell entry; Lassa virus pseudotype entry inhibition, cell reporter; control for the full effect not named in the record; Potency, µM (series often up to 37.9 µM), for the others: at the highest dose activity change, negative = inhibition, actives largely listed as inhibitors; 300,000 tested, 1.2% active; AID 540256; active means well fitted inhibition curve with a large enough effect; inconclusive means small, poorly fitted or top-dose-only effect, or effect the other way; inactive means flat fitted curve, though single readings scatter; tested in HEK293 cells; note: % is set by controls: 0 for no effect and ±100 for the full control effect; nearly all actives have a fitted effect of over 50% in size; luciferase read-out
NS1 inh = blocks influenza NS1 protein function; S. cerevisiae slowed by influenza A NS1, growth recovery by OD600; Potency, µM (highest dose often 46.1 µM), for inactives: top-dose activity, positive = more growth; 270,000 tested, 0.4% active; active means well fitted rising curve with a large enough effect; inconclusive means small, poorly fitted or top-dose-only effect; inactive means no such curve, though single readings can be large or run the other way; note: nearly all actives have a fitted effect of over 50% in size
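Read-out: OD600 growth recovery of NS1-expressing budding yeast. Cells grown overnight at 30C in -URA glucose medium, washed, resuspended and diluted 1:100 in 2% galactose assay medium, pH 6.0. Same strain lacking NS1 served as positive control.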
SARS PLP yeast = blocks SARS-CoV papain-like protease in a yeast assay. Potency, µM (titrated, usually from 32.9 µM), inactives show at the top dose activity, positive = growth rescue. 330,000 tested, 0.19% active. S. cerevisiae expressing SARS-CoV PLpro, growth rescue; control for the full effect not named in the record; active means well fitted rising curve with a large enough effect; inconclusive means small, poorly fitted or top-dose-only effect; inactive means no such curve, though single readings can be large or run the other way; note: 0% is about no effect; nearly all actives have a fitted effect of over 55% in size; growth read by luminescence after 48 h
Cruzain Triton = inhibitors of Trypanosoma cruzi cruzain with detergent; Potency, µM, inactives show max response, negative = inhibition, most hits filed as inhibitors; purified cruzain, Z-FR-AMC fluorescence, 0.01% Triton; P25779; AID 1478; 200,000 tested, 0.43% active;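 note: plate controls were neutral wells for no effect and buffer without enzyme for full effect; nearly all actives have a fitted effect of over 40% in size; top concentration of the series not given in the record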
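Detergent-containing run (0.01% Triton X-100) in acetate buffer pH 5.5 with 5 mM DTT: enzyme at 1.5 nM final, 15 min compound preincubation at room temperature, then 2 uM Z-FR-AMC substrate. Activity taken as 60 s fluorescence increase at 360/450 nm.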
The depositor's hits bear a star; ? = inconclusive; · = not tested or not shown; [ ] = another dose, or the depositor's remark. Unless noted, calls come from the whole dose curve; as a rule, active = well fitted curve in the direction sought with a large enough effect; inconclusive = small, poorly fitted or top-dose-only effect, or another doubt; inactive = no such curve, though single readings can be large; an effect the other way counts as inactive or inconclusive. Potency is the fitted concentration of half-maximal effect.

#	SMILES	SARS PLP yeast	NS1 inh	RE007 growth inh	StopGo reporter	MARV entry inh	LASV entry inh	Cruzain noTriton	Cruzain Triton
1	Cc1cc(NC(=O)c2ccc(C)s2)n(-c2ccccc2)n1	2.8%	-7.5%	3.1%	-21.6%	0.9%	6.4%	-0.8%	1.1%
2	CCN(c1ccccc1)S(=O)(=O)c1ccc(C(=O)Nc2nccs2)cc1	2.7%	16.9%	1.6%	?	-17.3%	-16.5%	0.9%	-6.0%
3	COc1cccc(CN2CC(C(=O)NCc3ccc(Cl)s3)CCC2=O)c1 (configuration not stated)	9.7%	-13.4%	17.1%	-1.2%	26.5%[46.1 µM]	-28.1%[46.1 µM]	·	·
4	O=C(NCCCN1CCCC1=O)c1ccc(NS(=O)(=O)c2ccccc2)cc1	-0.2%	·	-2.7%	18.4%	0.6%[46.1 µM]	4.1%	·	·
5	Cc1cc(C)c(OCCCCN2CCNCC2)c(C)c1	-1.2%	0.9%	1.7%	3.4%	·	·	·	·
6	C=CCn1c(SCc2cccc(C#N)c2)nnc1-c1ccccc1O	1.2%	-50.0%	7.8%	-2.0%	·	·	-12.9%	2.9%
7	O=C(CNC(=O)c1ccccc1F)N/N=C\C=C\c1ccccc1	?	10.3%	-3.1%	4.9%	2.1%[46.1 µM]	16.4%[46.1 µM]	·	·
8	CCC(=O)Nc1cccc(C(=O)/C=C/c2cc(Br)ccc2OC)c1	-26.1%	-127.7%	-14.8%	8.91µM*	?	11.2µM*	8.6%	-5.4%
9	CC(C)CNS(=O)(=O)c1ccc(OCC(=O)Nc2ccc3c(c2)OCCO3)cc1	2.2%	-1.0%	-4.9%	53.0%[activator]	-14.6%	3.5%	-0.3%	2.1%
10	O=C(CSc1ncn[nH]1)NC12CC3CC(CC(C3)C1)C2	2.2%	18.5%	2.1%	4.3%	9.0%	0.5%	-3.5%	7.5%
11	CN1C2CCC1CC(NS(=O)(=O)c1cc(Cl)c(Cl)cc1Cl)C2 (configuration not stated)	1.6%	1.8%	-0.5%	-15.8%	9.1%	5.3%	·	·
12	O=[N+]([O-])c1ncccc1OCc1ccc(Br)cc1F	0.8%	11.7%	-1.9%	0.9%	-12.5%[46.1 µM]	?	·	·

Continuation:
#	SMILES	SARS PLP yeast	NS1 inh	RE007 growth inh	StopGo reporter	MARV entry inh	LASV entry inh	Cruzain noTriton	Cruzain Triton
13	CCn1c(N2CCN(C(=O)Nc3ccc(F)cc3)CC2)nc2ccccc21	3.2%	-9.1%	8.0%	?	0.3%	0.9%	5.2%	0.1%
14	COc1cc(/C=N/n2c(C3CCCCC3)n[nH]c2=S)cc(OC)c1O	2.6%	3.0%	10.7%	-19.8%	-6.2%[46.1 µM]	18.0%[46.1 µM]	·	·
15	O=C(NCc1cccc(Cl)c1)c1cccc(C(F)(F)F)c1	-11.5%	-20.3%	-26.2%	-0.9%	?	-1.2%	-2.2%	-4.5%
16	COc1ccc(NC(=O)Cn2c(=O)oc3cc(S(=O)(=O)N4CCCCC4C)ccc32)cc1 (configuration not stated)	·	·	·	-18.2%	·	-6.7%[46.1 µM]	-6.2%	-2.7%
17	O=C(CNC(=O)c1ccccc1F)c1ccccc1	-10.5%	2.5%	3.6%	-6.4%	·	·	·	·
18	Cc1occc1C(=O)Nc1nnc(C2CCCCC2)s1	-0.6%	-167.4%	13.1%	49.4%[activator]	19.9%	86.5%[14.3 µM]	-0.4%	-2.4%
19	CCOC(=O)c1ccc(N2C(=O)C(CC(N)=O)N(CCc3ccc(OC)c(OC)c3)C2=S)cc1 (configuration not stated)	-3.0%	4.9%	14.6%	-3.4%	-2.1%[46.1 µM]	-15.6%	·	·
20	CC1=CC(C)(C)n2c(O)c(N=N)c3cc(C)cc1c32	3.2%	25.3%	-21.8%	?	?	-2.1%	4.0%	-7.4%
21	CC(=O)N1CCC(C(=O)N2CCN(S(=O)(=O)c3ccc(Cl)s3)CC2)CC1	·	·	14.1%	-20.1%	25.4%	-2.5%	·	·
22	Cc1c(C(=O)N(C)C)sc2nc(-c3ccccn3)[nH]c(=O)c12	1.1%	-1.8%	7.7%	23.0%	11.9%	19.3%	-7.9%	-3.1%
23	CC(=O)NS(=O)(=O)c1ccc(NC(=O)/C=C/c2ccc(C)o2)cc1	-0.3%	5.3%	9.0%	-5.9%	21.2%[46.1 µM]	12.2%	·	·
24	O=C(CN1C(=O)NC2(CCCCC2)C1=O)Nc1cccc(S(=O)(=O)N2CCCC2)c1	6.2%	·	0.9%	-4.6%	-2.2%	-1.4%	·	·

Structural class: the entries above containing an NH in an aromatic ring
#	SMILES	SARS PLP yeast	NS1 inh	RE007 growth inh	StopGo reporter	MARV entry inh	LASV entry inh	Cruzain noTriton	Cruzain Triton
10	O=C(CSc1ncn[nH]1)NC12CC3CC(CC(C3)C1)C2	2.2%	18.5%	2.1%	4.3%	9.0%	0.5%	-3.5%	7.5%
14	COc1cc(/C=N/n2c(C3CCCCC3)n[nH]c2=S)cc(OC)c1O	2.6%	3.0%	10.7%	-19.8%	-6.2%[46.1 µM]	18.0%[46.1 µM]	·	·
22	Cc1c(C(=O)N(C)C)sc2nc(-c3ccccn3)[nH]c(=O)c12	1.1%	-1.8%	7.7%	23.0%	11.9%	19.3%	-7.9%	-3.1%

(list continues)
#	SMILES	SARS PLP yeast	NS1 inh	RE007 growth inh	StopGo reporter	MARV entry inh	LASV entry inh	Cruzain noTriton	Cruzain Triton
25	O=C(CNC(=O)c1cccs1)NCC(=O)OCc1cccc(Cl)c1	-3.4%	4.8%	14.1%	·	10.6%	8.4%	-6.1%	-4.0%
26	NC(=O)c1nsc(C(=O)N(c2ccc3c(c2)OCCO3)C(C(=O)NCC2CCCO2)c2ccc(F)cc2)c1N (configuration not stated)	1.6%	16.4%	3.8%	9.9%	?	?	·	·
27	CC(=O)NC(=S)Nc1ccccc1F	1.1%	3.4%	-9.4%	7.2%	·	·	·	·
28	O=C(CCc1nc(-c2ccccc2Cl)no1)NC1CCCCC1	0.1%	-4.2%	-6.0%	-19.2%	14.8%[46.1 µM]	-29.9%	·	·
29	COc1cccc(Cn2c(=O)c3ccccc3n3nc(C)cc23)c1	-1.9%	-3.4%	5.1%	-24.1%	?	-25.3%	·	·
30	O=C(c1ccc(S(=O)(=O)Nc2cccc(C(F)(F)F)c2)cc1)N1CCC1	-3.2%	5.4%	7.8%	3.5%	?	-20.1%	·	·
31	COc1ccc(C2C(=O)N(CCc3ccccc3)CC(=O)N2C2CCCCC2)cc1 (configuration not stated)	2.2%	-7.1%	-9.4%	-14.5%	-28.6%	?	-8.0%	3.5%
32	COc1ccc(CNC(=O)c2sccc2-c2ccccc2)cc1OC	-1.3%	-0.5%	-15.4%	?	·	·	·	·
33	Cc1cc(C(=O)CSc2nnnn2C)c(C)n1-c1cccc(F)c1	4.4%	-13.6%	-4.8%	10.2%	?	?	-1.4%	-2.3%
34	CCc1cccc(NC(=O)C2CCN(S(=O)(=O)c3ccc4c(c3)NC(=O)CO4)CC2)c1	8.3%	18.0%	2.7%	-22.6%	·	·	·	·
35	CCn1c(=O)c2cc(C(=O)NCCc3ccc(OC)c(OC)c3)sc2c2ccccc21	·	·	·	?	9.2%[46.1 µM]	-1.8%[46.1 µM]	6.2%	0.7%
36	CN(C)S(=O)(=O)c1cccc(NC(=O)COC(=O)CCc2nc3ccccc3s2)c1	-0.3%	-8.0%	8.9%	-7.6%	8.7%	5.2%	2.9%	-4.9%

Continued:
#	SMILES	SARS PLP yeast	NS1 inh	RE007 growth inh	StopGo reporter	MARV entry inh	LASV entry inh	Cruzain noTriton	Cruzain Triton
37	CC1CC(C)CN(c2ccc(C(=O)OCC(=O)NC3CCCc4ccccc43)cc2[N+](=O)[O-])C1 (configuration not stated)	0.6%	2.5%	-7.1%	-20.6%	?	2.0%	?	1.2%
38	O=C(COc1ccc(CO)cc1)Nc1ccc(F)cc1	-0.4%	-5.5%[9.22 µM]	5.4%	·	14.3%	1.3%	-10.2%	-4.5%
39	CCCOc1ccc(C(=O)Nc2ccc3oc(-c4ccc5ccccc5c4)nc3c2)cc1	·	·	·	24.2%	·	12.4%[46.1 µM]	5.7%	3.3%
40	O=c1cc(-c2ccccc2)nc2cc(-c3ccc(Br)cc3)[nH]n12	1.4%	-1.3%	3.5%	41.1%[activator]	·	·	·	·
41	CCOc1ccc(NC(=O)[C@@H](NC(=O)c2ccccc2)[C@@H](C)CC)cc1	8.5%	-1.5%	-5.7%	-3.6%	-12.0%	6.4%	0.3%	1.9%
42	Cc1ccc(NC(=O)C2CC(=O)NC(N3CCc4ccccc43)=N2)cc1 (configuration not stated)	1.7%	-1.1%	0.4%	0.1%	-1.3%	3.5%	-20.1%	-0.1%
43	COc1cccc(CN(C(=O)COc2ccc(Cl)c(C)c2)C2CCS(=O)(=O)C2)c1 (configuration not stated)	·	·	·	0.0%	4.0%[46.1 µM]	-8.4%[46.1 µM]	?	-8.2%
44	CCCCOc1ccccc1NC(=O)Cn1c(-c2nonc2N)nc2ccccc21	6.0%	10.5%	1.3%	-12.0%	?	?	?	0.9%
45	COc1ccc(NC2=C(Cl)C(=O)N(CCc3ccccc3)C2=O)c(OC)c1	-21.5%	-3.6%	·	-11.1%	-6.5%	12.4%	-3.6%	-7.0%
46	O=C1NC(=S)NC(=O)C1Nc1ccc(Cl)cc1	·	·	5.0%	7.2%	?	5.7%[46.1 µM]	·	·
47	CC(c1nccs1)N(C)C(=O)c1ccc(OC2CCN(CCc3ccccc3)CC2)cc1 (configuration not stated)	7.1%	-1.1%	8.4%	-3.6%	-16.1%	7.5%	·	·
48	Cc1ccccc1NC(=O)c1ccc(Cn2cc([N+](=O)[O-])cn2)o1	-0.2%	-3.2%	6.8%	-27.8%	-3.6%	7.5%	·	·
